# VACV mCherry inh: vaccinia inhibition (mCherry reporter); Vaccinia virus mCherry reporter infection, fluorescence; about a quarter of the inactives have no number; Potency, µM (series often up to 36.5 µM), for inactives: at the highest dose activity change, negative = inhibition, most hits filed as inhibitors; 310,000 tested, 0.63% active; AID 720579; active = well fitted inhibition curve with a large enough effect; inconclusive = small, poorly fitted or top-dose-only effect; inactive = no such curve, though single readings can be large or run the other way; tested in A549 cells; also: nearly all actives have a fitted effect of over 35% in size; inactives centre near -10
# Vaccinia Venus: vaccinia inhibition (Venus reporter). Vaccinia virus Venus reporter expression, fluorescence. Potency, µM (doses to about 36.5 µM), for the others: at the top dose activity change, negative = inhibition, hits mostly inhibitors. 330,000 tested, 0.46% active; active means well fitted inhibition curve with a large enough effect; inconclusive means small, poorly fitted or top-dose-only effect; inactive means no such curve, though single readings can be large or run the other way; tested in A549 cells; also: nearly all actives have a fitted effect of over 30% in size; inactives centre near -10
# * hit, by the source's call; i = inactive; u = inconclusive; x = not tested or not shown; & = joins results of further samples; [ ] = another dose, or the depositor's remark. % is scaled to controls: 0 for no effect and ±100 for the full control effect; potency is read from the fitted curve at half-maximal effect.
# Each structure is followed by: VACV mCherry inh	Vaccinia Venus
- CC1(C(=O)Nc2ccc3c(c2)OCCO3)CCN1C(=O)CC1CCCC1 (stereo not drawn)
→ -12%	1%
- CCc1ccc(C(=O)c2cn(CC(=O)Nc3ccc(OC)cc3)c3cc4c(cc3c2=O)OCO4)cc1
→ -12%	-5%
- COc1ccc(N(C(=O)c2ccc(C)cc2)S(=O)(=O)c2cccs2)cc1
→ -12%	-24%
- COc1ccccc1Cn1nnc2c(=O)[nH]c(C3CCN(C(=O)c4ccc(C)cc4)CC3)nc21
→ x	u
- O=[N+]([O-])c1ccc2nc(/C=C/c3ccc(Cl)cc3)[nH]c2c1
→ -20%	u
- CCOC(=O)c1cnc2c(C)cc(Cl)cc2c1N1CCN(C)CC1
→ -17%	-4%
- C(=C\c1ccccn1)/c1ccncc1
→ -6%	-4%
- O=C1Nc2ccccc2N=C(c2ccccc2)C1N(C(=O)c1ccnc2ccccc12)c1ccccc1 (stereo not drawn)
→ i	-8%
- Cc1cc(C)nc(NN=C2CCCC2)n1
→ -8%	-13%
- COc1ccc(CN2C(=O)N(c3ccc(C)cc3)C(=O)C2CC(=O)Nc2ccccc2)cc1OC (stereo not drawn)
→ -8%	-6%
- CCN(CC)S(=O)(=O)c1ccc(OCCNS(C)(=O)=O)cc1
→ 10%	9%
- CC(C)Cc1cc(C(=O)N2CCCC(C(=O)c3cc(F)ccc3F)C2)n(C)n1 (stereo not drawn)
→ 5%[7.34 µM]	17%[7.34 µM]
- CCc1cc(C(c2ccc(F)cc2)N2CCOCC2)c(NC(=O)c2ccccc2)s1 (stereo not drawn)
→ -14%	-2%
- O=C1N(c2cccc3ccccc23)C(c2ccccc2)N2CCCN12 (stereo not drawn)
→ i	-25%
- CC(=O)Oc1ccc(Cl)cc1/C=C/c1ccc2ccccc2n1
→ -13%	u
- Cc1nn(-c2ccc(N3CCCCC3)nn2)c(C)c1CCC(=O)Nc1ccc(F)cc1
→ i[7.34 µM]	-15%[7.34 µM]
- C[C@@H]1COC(=O)[C@@H](CC(=O)OC(C)(C)C)C/C=C\C[C@H](CC(=O)N(CCO)Cc2ccccc2)C(=O)N1
→ i	3%
- Cc1ccc(C(=O)Nc2cccc(-c3cnc4ccccc4n3)c2)cc1
→ u	0%
- O=S(=O)(NCc1ccccn1)c1ccc(F)cc1
→ -7%	-1%
- O=C1CSC2(C(=O)N3CCCc4cccc2c43)N1c1cccc(C(F)(F)F)c1 (stereo not drawn)
→ i	-15%
- COc1ccc(NC(=O)c2ccc(-c3ccc([N+](=O)[O-])cc3)o2)cc1OC
→ -13%	4%
- COC(=O)c1ccc(CNC(=O)c2sccc2-c2ccccc2)cc1
→ -10%	-9%
- C=CCn1c(=O)c2ccccc2n2c(SCC(=O)N3CCCc4ccccc43)nnc12
→ -24%	-13%
- O=C(O/N=C(/c1ccccc1)c1ccncc1)c1ccc(F)cc1
→ -27%	-5%
- O=C(Nc1ccc2nc(SCC(=O)N3CCCc4ccccc43)sc2c1)c1ccc(F)cc1
→ u	-29%
- CCOC(=O)[C@]12CCCC=C1N(Cc1ccc3c(c1)OCO3)C(=O)[C@H](CC(=O)NCCc1ccccc1OC)C2
→ u	-27%
- COc1ccc(/C=N/NC(=O)CNC(=O)c2ccncc2)cc1OC
→ i	19%
- c1ccn2c(SCc3cn4ccsc4n3)nnc2c1
→ i	-13%
- O=C(Cc1ccccc1)Nc1ccc(C(=O)Nc2ccc(O)cc2)cc1
→ -8%	-12%
- CC(=O)Nc1ccc2c(c1)C(=O)N(C1CCCCC1)C2=O
→ x	7%
- CCCOc1ccc(C(=O)Nc2cc3c(cc2N2CCCCC2)n(C)c(=O)n3C)cc1
→ 2%	5%
- Cc1c(Cl)cccc1-c1ccc(CNc2ccc3[nH]c(=O)[nH]c3c2)o1
→ -2%	-16%
- CC(C)CC(=O)Nc1ccccc1N1CCN(C(=O)c2ccccc2)CC1
→ -14%	-8%
- O=C1C=C(N2CCCCC2)c2ccccc2C1=O
→ u	u
- Cc1cc(O)c(C(c2cccc(F)c2)N2CCC(C)CC2)c(=O)n1Cc1ccco1 (stereo not drawn)
→ -16%	-8%
- O=C(c1ccc(F)cc1)n1nc(-c2cccnc2)nc1NCc1ccccc1
→ -9%	-7%
- Nc1[nH]c(=S)[nH]c(=O)c1N
→ -14%	-7%
- CCn1c(=O)c(C(=O)NCCc2ccccc2)c(O)c2ccccc21
→ x	-19%
- Cc1ccc2nc(COC(=O)c3cccnc3Cl)cc(=O)n2c1
→ -20%	-8%
- CCn1c(SCC(=O)NC2CCCc3ccccc32)nnc1-c1ccncc1 (stereo not drawn)
→ i	-5%
- COc1ccc2c(=O)cc(-c3cccnc3)oc2c1OC
→ -3%	-13%
- O=C(c1cc2c(ccc3ccccc32)o1)N1CCN(c2ncc(C(F)(F)F)cc2Cl)CC1
→ -15%	u
- CCc1ccc(-n2ccc(=O)c(C(=O)O)n2)cc1
→ i	-4%
- COc1ccc(/C=N/n2c(C)nc3ccccc3c2=O)cc1
→ -7%	-7%
- COc1ccc(C)cc1N(C(=O)c1cccc(F)c1)c1nc2ccccc2s1
→ i	-14%
- COC(=O)C1=CN(CC2CCCO2)C=C(C(=O)OC)C1c1cccc(O)c1 (stereo not drawn)
→ i	-10%
- CCCCn1c(=NC(=O)c2cccnc2)c(C(=O)OCC)cc2c(=O)n3ccccc3nc21
→ -14%	-9%
- CCCCOc1ccc(/C(O)=C2/C(=O)C(=O)N(CCN(C)C)C2c2ccc(O)c(OC)c2)cc1 (stereo not drawn)
→ -3%	1%
- Oc1ccc2c(c1)C1CCCC1(N1CCOCC1)O2 (stereo not drawn)
→ -14%	-4%
- CCOCCn1c(CN2CCCCC2)nc2c1c(=O)n(C)c(=O)n2C
→ -11%	-4%
- O=C(NCCc1ccccc1)C1CCN(S(=O)(=O)c2ccc(-c3nn[nH]n3)cc2)CC1
→ x	-21%
- Cc1ccc2c(CC(=O)OCC(=O)Nc3ccc(Cl)cn3)coc2c1
→ -2%	-4%
- CCOCCn1ccc2c(OCC(=O)Nc3cc(C)cc(C)c3)cccc2c1=O
→ 0%	10%
- COc1cccc(-n2cn[nH]c2=S)c1
→ i	4%
- N#Cc1c(SCC(=O)O)nc(N2CCCCC2)c2c1CCCC2
→ -10%	-8%
- COc1ccc(CCNC(=O)c2ccc3c(c2)OCO3)cc1
→ i	-7%
- O=C(NC1(C(F)(F)F)NC(=O)N(C2CCCC2)C1=O)C1CC1 (stereo not drawn)
→ -4%	-3%
- CCOCCc1c(O)nc(SCCOc2ccc(C)c(C)c2)[nH]c1=O
→ 5%	2%
- Cc1sc2c(c1C)c(=O)n(-c1ccccc1)c1nnc(C)n21
→ -19%	-12%
- COc1ccccc1CNC(=O)CCS(=O)(=O)c1ccc2c(c1)CCN2C(C)=O
→ -6%	-9%&-2%

# (cont.)
# Each structure is followed by: VACV mCherry inh	Vaccinia Venus
- CC(C)NC(=O)c1c(CSc2ccccc2)noc1C(=O)NCc1ccccc1
→ u	-16%
- Cc1ccc(-n2cc(CNCCc3cscn3)c(-c3ccc(F)cc3)n2)cc1
→ i	-20%
- CC(C)(C)C1CCC(OC(=O)c2cncc(Br)c2)CC1 (stereo not drawn)
→ -20%	-12%
- CN(C)C(=O)CNc1ccn2nc(-c3cccc(Cl)c3)cc2n1
→ -11%	-5%
- O=C(O)CCCc1ccc2ccc3cccc4ccc1c2c34
→ i	-11%
- O=C(Cn1ncc2c(Cl)cccc21)NCc1cccc(Br)c1
→ -18%	-18%
- C=CCN(C(=O)c1csnn1)C(C(=O)NCc1ccc(F)cc1)c1cccs1 (stereo not drawn)
→ 19%	-1%
- O=C(OC(c1ccccc1)c1nccc2ccccc12)c1ccccc1 (stereo not drawn)
→ -4%	-3%
- COCC(=O)OCC(=O)Nc1ccc(Cl)cc1[N+](=O)[O-]
→ -20%	-13%
- COc1ccc(N2C(=O)CC(Sc3ncn[nH]3)C2=O)c(OC)c1 (stereo not drawn)
→ -15%	-12%
- CCc1nccn1S(=O)(=O)c1ccc2ccc(C)cc2c1
→ x	u
- CC(C)NC(=O)NC(=O)COC(=O)c1cc[n+]([O-])cc1
→ i	3%
- COc1cccc(NC(=O)c2oc3ccccc3c2NC(=O)c2ccc(F)c(F)c2)c1
→ -9%	-3%
- COc1ccc(C2CC(c3cccs3)=NN2c2ccc(C=O)cc2)cc1 (stereo not drawn)
→ -4%	-15%
- O=C(COc1cccc(C(F)(F)F)c1)Nc1ccc(S(=O)(=O)N2CCCCC2)cc1
→ -28%	-17%
- Oc1c(Cl)cc(Cl)c2cccnc12
→ -14%	u
- CC(C)(C)C(=O)CSc1ncnc2c1cnn2-c1ccccc1
→ i	-7%
- C=CCNC(N)=S
→ -14%	-5%
- O=C(CCc1ccccc1)Nc1c(F)c(F)c(F)c(F)c1F
→ -1%	-6%
- COc1ccc2c(c1)C(=O)CC2
→ -9%	-4%
- O=C(CSCC(=O)Nc1nccs1)Nc1ccccc1
→ -10%[1.46 µM]	-8%
- CCCCC(=O)NC1(C(F)(F)F)C(=O)Nc2c1c(=O)[nH]c(=O)n2-c1ccc(F)cc1 (stereo not drawn)
→ -6%	0%
- CC(C)NCC(O)(c1ccc(Cl)cc1)c1ccc(Cl)cc1
→ -19%	-12%
- CN(C)/C=C/C(=O)c1ccc(C(F)(F)F)cc1F
→ -12%	-1%
- C=CCOc1ccc(C2/C(=C(\O)c3ccc(F)cc3)C(=O)C(=O)N2CCCN(C)C)cc1 (stereo not drawn)
→ -18%	-7%
- CCOC(=O)c1c(S(=O)(=O)N2CCC(C(=O)NCc3ccccc3OC)CC2)c(C)n(C)c1C
→ -8%	-9%
- CC(NC(=O)Nc1nccs1)(C(F)(F)F)C(F)(F)F
→ i	-12%
- Cc1ccc(C)c(Cn2nc3c4ccccc4n(Cc4ccccc4)cc-3c2=O)c1
→ u	-3%
- CCNC(=O)[C@H]1O[C@@H](n2cnc3c(N)nc(NCCc4ccc(CCC(=O)O)cc4)nc32)[C@H](O)[C@@H]1O
→ -7%	-4%
- O=C(c1ccc2oc(CCCc3ccccc3)nc2c1)N1CCCC1
→ i	-18%
- CCOc1ccc(S(=O)(=O)NCc2ccco2)c2ccccc12
→ -24%	-11%
- O=C(NCc1ccco1)C(Cc1ccccc1)N1C(=O)C2C3C=CC(C3)C2C1=O (stereo not drawn)
→ x	-17%
- CC(Sc1ccccc1)C(=O)NN=C1CCCCCCC1 (stereo not drawn)
→ 5%	-1%
- CCc1ccc(NC(=O)[C@H](Cc2ccccc2)NC(=O)C2CCN(C(=O)[C@@H](N)CC(C)C)CC2)cc1
→ -12%	-8%
- CCOC(=O)C1(Cc2cccc(Cl)c2)CCCN(C(=O)c2cnn(CC)c2)C1 (stereo not drawn)
→ i	-19%
- CCN(Cc1ccncc1)C(=O)CCc1nnc(CCC2CCCCC2)o1
→ i	-18%
- O=C(O)c1c2c(nc3ccc(S(=O)(=O)N4CCC(C(=O)N5CCCCC5)CC4)cc13)CCCC2
→ -4%	-4%
- CN(c1cccc(Cl)c1)S(=O)(=O)c1cccc(C(=O)Nc2nc3ccccc3[nH]2)c1
→ u	11µM*
- Cc1ccc2onc(CNC(=O)N3CCN(c4cc(Cl)ccc4C)CC3)c2c1
→ -28%	-21%
- COCCNC(=O)NC(=O)CN1C(=O)NC(Cc2c[nH]c3ccccc23)C1=O (stereo not drawn)
→ -11%	-11%
- CNC(=O)CN(c1cccc(Br)c1)S(C)(=O)=O
→ -21%	-14%
- CN1C[C@@H]2C(c3ccc(C(F)(F)F)cc3)C3(c4cccnc4)CC2(C3)[C@H]1c1ccccc1 (stereo partly drawn)
→ -12%	-6%
- CCCCOc1ccc(C(=O)N/C(=C/C=C/c2ccccc2)C(=O)O)cc1
→ i	-4%
- Cc1cccc(-c2nc(CN3CCCC(C(=O)NCc4ccc(Cl)cc4)C3)c(C)o2)c1 (stereo not drawn)
→ -5%	-9%
- COC(=O)C1CCN(S(=O)(=O)c2cc3c4c(c2)CC(=O)N4CCC3)CC1
→ -22%	-17%

# Reformatted: results already given
CCNC(=O)[C@H]1O[C@@H](n2cnc3c(N)nc(NCCc4ccc(CCC(=O)O)cc4)nc32)[C@H](O)[C@@H]1O
  VACV mCherry inh: -7%
  Vaccinia Venus: -4%
O=C(c1ccc2oc(CCCc3ccccc3)nc2c1)N1CCCC1
  VACV mCherry inh: i
  Vaccinia Venus: -18%
CCOc1ccc(S(=O)(=O)NCc2ccco2)c2ccccc12
  VACV mCherry inh: -24%
  Vaccinia Venus: -11%
O=C(NCc1ccco1)C(Cc1ccccc1)N1C(=O)C2C3C=CC(C3)C2C1=O (stereo not drawn)
  VACV mCherry inh: x
  Vaccinia Venus: -17%

# Following part
# Each structure is followed by: VACV mCherry inh	Vaccinia Venus
- CC(C)NC(=O)N(C)C[C@H]1Oc2c(NS(=O)(=O)c3cn(C)cn3)cccc2C(=O)N([C@H](C)CO)C[C@@H]1C
→ -24%	-9%
- Cc1ccc(C)n1-c1c(C(=O)NN)cnn1-c1ccccc1
→ -21%	-9%
- CCc1cc(=O)oc2cc(OC(=O)CN3C(=O)NC4(CCCC4)C3=O)ccc12
→ -14%	-8%
- CCCn1c(CNC(=O)c2ccc(F)cc2)nc2ccccc21
→ -2%	-5%
- CCCCCCCCCCCCCCCCCCN(CCCCCCCCCCCCCCCCCC)c1ccccc1
→ i	-20%
- CSc1ccc(C(=O)C2CCCN(C(=O)c3cccc(N4CCOCC4)c3)C2)cc1 (stereo not drawn)
→ 0%	-7%
- COc1cccc(CNCCSc2nnnn2C)c1OCc1ccc(Cl)cc1Cl
→ i	-15%
- CNC(=O)c1[nH]cnc1C(=O)N[C@@H](C)C(=O)OCc1ccccc1
→ -28%	-10%
- COc1ccc(Cc2nc3ccc(C(=O)NC(C)Cc4ncccc4C)cc3o2)cc1OC (stereo not drawn)
→ i	-22%

# High-throughput results (PubChem)

# Outcome played no part in choosing rows; 0.82% or so of the library scored in one or more.
